# OX1R antag-1: human HCRTR1 antagonism | O43613 | CHO/OX1R cells, Fluo-8 calcium fluorescence, orexin A | inhibition, % at 5 µM | 330,000 tested, 0.43% active | AID 434989;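 active means inhibition above its plate's threshold, mean inhibition of all tested compounds on the plate plus 3 SD, cut at about 37% in these data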;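 further: 0% = orexin A challenge wells and 100% = SB-334867-A antagonist wells; not every result past the cut was called active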
# Target sequence (O43613 whole entry, looked up): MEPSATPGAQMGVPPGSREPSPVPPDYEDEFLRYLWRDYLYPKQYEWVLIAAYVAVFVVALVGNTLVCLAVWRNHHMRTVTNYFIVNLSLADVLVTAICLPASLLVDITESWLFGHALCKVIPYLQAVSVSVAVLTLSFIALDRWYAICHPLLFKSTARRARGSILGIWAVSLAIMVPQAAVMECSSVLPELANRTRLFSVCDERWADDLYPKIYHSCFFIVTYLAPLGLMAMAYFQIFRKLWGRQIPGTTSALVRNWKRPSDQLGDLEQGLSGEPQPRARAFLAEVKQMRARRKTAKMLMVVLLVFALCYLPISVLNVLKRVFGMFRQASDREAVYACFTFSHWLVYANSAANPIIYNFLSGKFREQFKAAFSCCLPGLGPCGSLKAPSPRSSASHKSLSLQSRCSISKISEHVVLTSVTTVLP
# OX1R antag-2: antagonists of human orexin 1 receptor (OX1R); O43613; OX1R-expressing cells, FRET antagonist read-out; inhibition, % at 6.6 µM; 330,000 tested, 1.8% active; AID 485270; in the data active means inhibition mostly above about 38%, no sharp cut-off; inactive means mostly below about 40%;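 further: 0% = agonist challenge alone and 100% = reference antagonist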
# * = called active by the depositor. This is a subset; most or all hits stand in other tables.
SMILES | OX1R antag-1 | OX1R antag-2
COc1ccc(C(=O)NCC(=O)n2nc(C)cc2C)cc1OC | -7.1 | 7.3
O=[N+]([O-])c1ccc(S(=O)(=O)CC(CN2CCCCC2)N2CCCCC2)cc1 (stereo not given) | -3.5 | 59.7
O=C(CSCc1cc(=O)[nH][nH]1)Nc1ccc(F)cc1 | -14.4 | -0.8
COc1ccc(C(=O)CN2C(=O)NC3(CCCCC3)C2=O)cc1OC | -14.8 | 1.0
CC(=O)/C(=C\N(C)C)Sc1ccc(C)cc1 | -9.8 | 3.3
COc1cc2c(cc1C1NC(=S)NC(C)=C1C(=O)N(C)C)CCCC2 (stereo not given) | -9.8 | 8.6
CC1(C)CC2CC(C)(CN2C(=O)COc2cccc3ccccc23)C1 (stereo not given) | -0.7 | 12.5
Cc1cc(NC(=O)c2cccnc2)ccc1NC(=O)c1ccco1 | -10.9 | 5.1
CCOC(=O)CN(C(=O)c1snc(C(N)=O)c1N)C(C(=O)NCCC(C)C)c1ccc(F)cc1 (stereo not given) | -22.0 | 3.2
CCN(CC)c1ccc(CNc2nc3ccccc3n2C(C)C)cc1 | -32.5 | 12.4
O=C1CC(=O)N(Cc2ccco2)C(=O)N1 | -5.3 | 14.2
N#CC1=C(N)Oc2n[nH]c(-c3cccnc3)c2C1c1cc(F)ccc1F (stereo not given) | -12.6 | 6.3
Cc1cc(S(=O)(=O)Nc2ccc3ccccc3c2)c(C)s1 | -3.4 | 12.4
CCNc1nc(NCC)nc(SCC(C)=O)n1 | -8.6 | 31.1
COc1ccccc1CNC(=O)C1CC2Cn3c(nc4cc(C)c(C)cc43)C2N1C (stereo not given) | -18.2 | 10.9
Cc1c(OC(C)C(=O)NCCCN2CCOCC2)ccc2c1oc(=O)c1ccccc12 (stereo not given) | -22.6 | 18.6
CC1=C(C(=O)Nc2ccc(C)cc2C)C(c2ccc(Cl)cc2)n2nc(C(=O)OC(C)C)nc2N1 (stereo not given) | -30.2 | 3.2
CCOc1ccc(C(=O)Nc2cccc(C(=O)O)c2)cc1Cl | -4.2 | 6.8
O=C(NCCN1CCOCC1)NC1(C(F)(F)F)Oc2ccccc2O1 | 1.8 | 8.8
C(=C\c1nccc2c1[nH]c1ccccc12)/c1ccccc1 | -28.5 | 12.2
Cc1ccc2oc(/N=C(\N)NC(=O)C3CC3)nc2c1 | -4.3 | 4.6
COc1ccc(S(=O)(=O)N2CCCCC2)cc1C(C)C | 15.3 | 14.0
CCn1c2ccccc2c2nnc(SCC(=O)Nc3ccc4c(c3)OCO4)nc21 | -12.9 | 15.7
COc1ccc(C2SCC(=O)N2CC23CC4CC(CC(C4)C2)C3)cc1 (stereo not given) | -25.2 | -3.5
COc1ccc(N2CC(NC(=O)NCCC(C)C)CC2=O)cc1 (stereo not given) | 6.0 | 16.2

# Next section; the last two above are carried over.
SMILES | OX1R antag-1 | OX1R antag-2
COc1ccc(C2SCC(=O)N2CC23CC4CC(CC(C4)C2)C3)cc1 (stereo not given) | -25.2 | -3.5
COc1ccc(N2CC(NC(=O)NCCC(C)C)CC2=O)cc1 (stereo not given) | 6.0 | 16.2
Cc1ccccc1NC(=O)Cc1nc(CCl)cs1 | 2.2 | -8.9
CCOc1ccc(N2CC(C(=O)Nc3nnc(SCCOC)s3)CC2=O)cc1 (stereo not given) | -15.2 | 6.5
COc1ccc2cc3c(N)nn(C(=O)Cc4ccccc4OC)c3nc2c1 | -24.4 | 17.4
Cc1cc(C)n2nc(SCc3ccccc3C(=O)O)nc2n1 | 24.9 | -14.8
Nc1ccn([C@H]2CS[C@@H](CO)O2)c(=O)n1 | -9.2 | 6.6
Cn1ncc2c1ncn1nc(COc3ccc4ccccc4c3)nc21 | -11.5 | 10.0
O=C(O)c1ccc(N=NN2CCCCCC2)cc1 | 0.8 | 35.7
O=C(NCc1ccc(CNC(=O)c2ccco2)cc1)c1ccco1 | -6.4 | -0.2
O=C(NC(=S)N1CCN(c2ccc(Cl)cc2[N+](=O)[O-])CC1)c1ccco1 | -37.8 | 15.2
Cc1c(C(=O)C(=O)NCCCn2ccnc2)c2ccccc2n1C | -13.2 | -5.6
O=[N+]([O-])c1ccc2c(c1)C(N1CCOCC1)/C(=C/COc1ccc(F)cc1)O2 (stereo not given) | -6.8 | 7.8
CC1(C)Cc2ccccc2C(N/N=C/c2cccc(F)c2)=N1 | -22.6 | 19.8
O=C(COC(=O)CNC(=O)c1cccc([N+](=O)[O-])c1)Nc1nc2ccccc2s1 | -13.0 | 9.1
COc1ccc(Cl)cc1NC(=S)N1CC(C)OC(C)C1 (stereo not given) | -20.6 | 17.6
COC(=O)c1ccccc1NC(=O)C1CCC(=O)N1S(=O)(=O)c1ccc(C)cc1 (stereo not given) | -16.4 | 7.8
O=C(Nn1c(-c2ccc(Br)cc2)nc2ccccc2c1=O)c1ccncc1 | -19.1 | 26.4
Cc1nn(-c2ccc([N+](=O)[O-])cc2)c2c1C(c1ccc(OC(F)F)cc1)N1C(=N2)C(=O)Nc2ccccc21 (stereo not given) | -10.1 | -9.4
CCN1C(=O)[C@@H]2[C@@H](c3ccc(-c4cccc(Cl)c4)cc3)N3CCC[C@@]3(C(=O)OC)[C@@H]2C1=O | -22.0 | 19.1
Cc1nc(-c2ccccc2)nc2sc(C(=O)c3ccc(F)cc3)c(N)c12 | -4.7 | 6.3
O=C(COC(=O)c1ccc(Cl)nc1)Nc1cccnc1Cl | -12.0 | 2.8
O=C(CCc1ccccc1)Nc1nc2n(n1)C(c1ccc(Cl)cc1)CC(=O)N2 (stereo not given) | -24.0 | 22.0
O=C(CSc1nc2ccccc2n1CC(=O)N1CCCC1)N1CCN(C(=O)c2ccco2)CC1 | -6.9 | 9.8
CCOc1c(Br)cc(/C=C2\C(=O)N(CCC#N)N=C2C)cc1OC | -23.2 | 12.2
Cc1cc(C)nc(/N=C(\N)Nc2ccc(C)c([N+](=O)[O-])c2)n1 | -16.2 | 25.2
CN=C1S/C(=C\c2cn(CC(=O)OC)c3ccccc23)C(=O)N1C | -25.9 | 18.2

SMILES | OX1R antag-1 | OX1R antag-2
COc1ccccc1NC(=O)CCC(=O)OC(C)C(=O)c1ccccc1 (stereo not given) | -10.5 | 9.2
Cn1c(=O)[nH]c(=O)c2c1nc(SCCN1CCOCC1)n2Cc1ccccc1 | -20.4 | 10.7
COc1ccc(OC)c(CCNC(=O)CS(=O)(=O)Cc2nc(-c3ccccc3C)oc2C)c1 | -21.2 | 23.8
CC1(C)C2CCC1(CS(=O)(=O)N1CCC(C(=O)O)CC1)C(=O)C2 (stereo not given) | 4.3 | 10.1
COC(=O)c1cn(CC(=O)NCc2cccs2)c2ccccc12 | -10.1 | 16.5
CCn1c(=O)c2cc(C(=O)Nc3cc(C)on3)sc2c2ccccc21 | -13.1 | 15.0
Cc1ccc2nc(NCCCO)[nH]c2c1 | 10.2 | 6.8
COCCN(CCOC)S(=O)(=O)c1ccc(C(=O)Nc2nc(-c3ccccc3)c(C(=O)c3ccccc3)s2)cc1 | -27.4 | 14.8
O=C(Nc1ccc(Br)cc1)c1cccc(NC(=O)C2C3CC4OC(=O)C2C4C3)c1 (stereo not given) | 1.1 | 11.4
C=CCN(C(=O)Cn1nc(C)n2c(cc3cc(C)ccc32)c1=O)c1ccccc1 | -9.0 | 33.3
CCN(CC(=O)Nc1cc(Cl)ccc1C)C(=O)c1cc([N+](=O)[O-])ccc1N1CCOCC1 | -25.3 | 25.1
N/C(=N\OC(=O)c1cc(-c2ccccc2)nc2ccccc12)c1ccncc1 | -7.1 | 1.9
COC(=O)c1ccc2nc(Nc3nc4c(F)cc(F)cc4s3)sc2c1 | 0.2 | 10.2
CCc1nnc(NS(=O)(=O)c2ccc(N3C(=O)c4ccccc4C3=O)cc2)s1 | -11.4 | 12.6
COc1ccc(OC)c(C2C3=C(CCCC3=O)Nc3nnnn32)c1 (stereo not given) | -5.8 | 11.4
O=C(NCC(=O)N(Cc1ccco1)C(C(=O)NC1CCCCC1)c1ccncc1)c1cccs1 (stereo not given) | -25.6 | 23.4
C=CCSc1nnc(NC(=O)CSc2ccccn2)s1 | -23.6 | 18.5
CCOC(=O)N1CCN(S(=O)(=O)c2ccc(C(=O)N(CCCN(C)C)c3nc4cc(OC)ccc4s3)cc2)CC1 | -19.0 | 28.4
CCOC(=O)N1CCN(C(=O)c2cnn3c(C)c(Cc4ccc(C)cc4)c(C)nc23)CC1 | -22.9 | 15.8
Cc1cc(C)n(C(=O)C(C)n2nc([N+](=O)[O-])c(Br)c2C)n1 (stereo not given) | -9.9 | 15.0
COc1ccc(Nc2nc(N)c([N+](=O)[O-])c(N3CCCC3)n2)cc1 | -35.1 | 19.1
N#CC1=C(N)N(c2ccccc2)C(c2ccco2)C1(C#N)C#N (stereo not given) | -19.8 | 12.2
CCCN(CC1CC1)c1nc(C)nc(Nc2c(Cl)cc(Cl)cc2Cl)c1Cl | -23.0 | 9.7
CC(C)[C@H](CO)Nc1nc(Nc2ccc(Cl)c(C(=O)O)c2)c2ncn(C(C)C)c2n1 | -5.7 | 15.2
COc1ccc(NC(=O)CN(c2ccc(C)cc2)S(C)(=O)=O)c(OC)c1 | -8.6 | 23.2

SMILES | OX1R antag-1 | OX1R antag-2
CCOCCCNCc1ccc(OC)cc1 | 3.4 | 5.9
Cc1ccc(CN2CCC(CO)(CC3CCCCO3)CC2)o1 (stereo not given) | -19.8 | 0.4
CNCc1c(OCc2ccccc2F)ccc2ccccc12 | -16.2 | 25.7
C=C1CCN([C@@H](C)C(=O)NCc2ccc(Cl)cc2)S(=O)(=O)c2ccccc21 | -28.0 | 37.5
COc1ccc2c(c1)C(=O)N(c1ccccc1C)C(=O)C2(C)C | -10.5 | 11.0
COC(=O)c1oc2ccc(Br)cc2c1NC(=O)c1ccccc1 | -12.3 | 8.1
O=C(O)CCn1c(=O)n(CCC(=O)O)c(=O)n(CCC(=O)O)c1=O | -3.0 | 8.3
Cc1cccc(NS(=O)(=O)c2ccc(C(=O)N3CC(C)OC(C)C3)cc2)c1C (stereo not given) | -13.5 | 17.7
O=C(NCCCN1CCOCC1)c1cc2c(s1)CCC2 | -19.8 | 8.4
CC(C)(C)NC(=O)C(c1ccc(O)cc1)N(C(=O)CCC(=O)Nc1nccs1)c1ccccc1F (stereo not given) | 2.0 | 42.3
O=S(=O)(c1ccccc1)c1cnc(-c2cccnc2)nc1-c1ccc(Cl)cc1Cl | -20.8 | 22.3
O=C(C1CCN(S(=O)(=O)c2ccccc2)CC1)N1CCCCC1 | -3.4 | 19.2
CCOC(=O)c1c(NC(=O)Nc2cccc(Cl)c2)sc(C)c1C | -22.1 | 10.7
Cc1ccc(-c2nc(=S)c3c(n2CCN2CCOCC2)CC(C)(C)OC3)cc1 | -9.5 | 12.8
COc1ccc(Cc2c(O)nc(SCC(=O)c3ccc(OC)cc3)[nH]c2=O)cc1 | -30.1 | 18.0
Cc1ccc(CNS(=O)(=O)c2ccc([N+](=O)[O-])cc2)cc1 | -27.4 | 18.2
CC(Oc1ccc(F)cc1)C(=O)Nc1ccc(N2CCOCC2)cc1N1CCOCC1 (stereo not given) | -6.7 | 13.6
CCOC(=O)C1CCN(C(=O)CSCCSCC(=O)N2CCC(C(=O)OCC)CC2)CC1 | -28.3 | 15.7
CCNC(=O)CCc1nc(-c2ccc(C)cc2)no1 | -16.2 | 1.2
Cc1ccc(Nc2nc(N)nc(CN3CCN(c4ccccc4)CC3)n2)cc1Cl | -24.8 | 15.5
CN(C)S(=O)(=O)c1cccc(NC(=O)c2cncc(Br)c2)c1 | -19.4 | 11.7
O=C(c1cc(COc2ccc(F)cc2F)on1)N1CC[C@@H]2CCCC[C@H]2C1 | -23.7 | -4.1
O=C(CSc1n[nH]c(-c2ccccn2)n1)Nc1ccc(F)cc1 | -6.2 | 14.4
Cc1ccc2nc(NCC(=O)O)nc(-c3ccccc3)c2c1 | -34.0 | 25.4
O=C(/C=C/c1cccc2ccccc12)N1CCOCC1 | -18.0 | 4.2

SMILES | OX1R antag-1 | OX1R antag-2
Cc1nnc(SCc2nnc(-c3cccs3)o2)n1C1CCCCC1 | -7.8 | 14.5
Cc1ccccc1C(=O)N/N=C1/SCC(=O)N1Cc1ccccc1 | -7.0 | 7.9
Cc1ccnc(NS(=O)(=O)c2ccc(NC(=O)COc3ccccc3)cc2)n1 | -10.1 | 6.7
O=[N+]([O-])c1ccc(N/N=C\c2cccnc2)nc1 | -7.9 | 40.8
O=c1nc(N2CCOCC2)ccn1Cc1ccc(Br)cc1 | 3.2 | 10.3
COc1ccc(N2CCN(C(=O)Cn3c(=O)[nH]c4ccsc4c3=O)CC2)cc1 | -28.5 | 17.5
Cc1ccc2[nH]c3c(c2c1)CN(C(=O)CN1CCCc2ccccc21)CC3 | -18.9 | 15.6
CCOC(=O)C1CCN(S(=O)(=O)c2ccc(NC(=O)c3ccco3)cc2)CC1 | -7.7 | 16.1
Cc1ccccc1/C=N/n1c(-c2cc(-c3ccccc3)n[nH]2)n[nH]c1=S | -21.3 | 7.7
CC12CCC(=O)N1C(C(=O)Nc1cc(Cl)ccc1N1CCOCC1)CS2 (stereo not given) | -20.3 | 10.9
CCOc1ccc(CCNC(=O)COC(=O)COc2ccc(Cl)cc2)cc1OCC | -127.2 | 7.4
COc1ccc(/C(C)=N/NC(=O)OC(C)(C)C)cc1[N+](=O)[O-] | -14.0 | 13.8
COc1ccc(CNC(=O)N2CCN(c3ccc(F)cc3)CC2)cc1Cl | -11.4 | 0.8
CCn1cc(S(=O)(=O)N2CCN(Cc3cccc(Cl)c3)CC2)cn1 | -2.9 | 25.2
C=CCNC(=O)NC(=O)COC(=O)/C(C#N)=C/c1ccc(OC)cc1 | -6.0 | 21.0
COc1cc(C(=O)Nc2nccs2)cc(OC)c1OC | -18.0 | 0.8
COc1ccc2[nH]c(=O)c(CN(CC3CCCO3)C(=O)Nc3ccccc3)cc2c1 (stereo not given) | -21.1 | 5.3
O=C(CSc1nc2ccccc2c(=O)n1Cc1ccco1)NCc1ccco1 | -28.8 | 8.5
COc1ccc(N2C(=O)CC(N3CCN(c4ccccc4F)CC3)C2=O)cc1 (stereo not given) | -2.8 | 0.5

# Screens: PubChem, The Scripps Research Institute Molecular Screening Center
